Measles inh: inhibitors of measles virus growth in cells, primary screen, measles RdRp inhibitor project, cell-based, single point, HTS | infected Vero cells, GFP fluorescence, 64 h; hits give low values | z-score (test concentration not listed) | 33,000 tested, 0.1% active;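 active = z-score under -3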;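 also: score is relative to mean and SD of the compound wells of a plate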
Active calls of the source: *.

Measles inh,smiles
-0.94,O=C(Nc1ccc(OC(F)(F)F)cc1)C1CCN(S(=O)(=O)c2ccc(Br)s2)CC1
-0.04,CCCCN(C)S(=O)(=O)c1ccc(C(=O)N=c2sc3cc(C)ccc3n2CC)cc1
-1,CCOc1ccccc1NC(=O)NC(=O)N(C1CCCCC1)S(C)(=O)=O
1.6,CCCn1cc(S(=O)(=O)CC(=O)Nc2cccc(C)c2C)c2ccccc21
-0.4,COc1cccc2cc(C(=O)Nc3ccccc3)c(=Nc3ccccc3F)oc12
-0.38,Cc1cc(OCC(=O)Nc2cc3nn(-c4ccccc4)nc3cc2C)ccc1Cl
-0.13,CCN1C(=O)C(O)(c2c(C)[nH]c3ccccc23)c2ccccc21 (configuration not stated)
-0.3,Cc1nc([N+](=O)[O-])c(N2CCCC2)n1Cc1ccccc1
-0.1,CC(=O)C1=C(O)C(=O)N(CCCN2CCOCC2)C1c1ccccc1Cl (configuration not stated)
-0.27,C=CCOc1ccc(C2C(C(=O)OCC)=C(C)N=C3SCCC(=O)N32)cc1 (configuration not stated)
-1.4,CN(CC#CCC(O)(c1ccccc1)C1CCCC1)Cc1ccccc1 (configuration not stated)
-0.38,CCOc1cc2oc(=O)cc(C)c2cc1Cl
-0.31,Cc1ccccc1N1C(=O)CSC12C(=O)Nc1ccccc12 (configuration not stated)
-0.33,Cc1ccc(C2=NC3(CCCCC3)NC(c3cc(Br)ccc3O)C2)cc1 (configuration not stated)
-0.61,COc1ccc(S(=O)(=O)NCCSCc2ccco2)cc1
-0.94,Cc1onc(-c2ccccc2)c1C(=O)Nc1cccc2c1C(=O)c1ccccc1C2=O
0.35,Cc1sc2ncn(CC(=O)Nc3ccc(Oc4ccccc4)cc3)c(=O)c2c1S(=O)(=O)N1CCN(C)CC1
8.4,CCNc1c2c3c(cccc3n(C)c1=O)C(=O)c1ccccc1-2
0.99,CCn1c2ccccc2c2cc(NC(=O)c3cc4c(=O)oc5ccccc5c4s3)ccc21
0.92,CCN(CC)S(=O)(=O)c1ccc(F)c(C(=O)NCCC(C)C)c1

Next section, starting with the last 7 of the part before.
Measles inh,smiles
-0.33,Cc1ccc(C2=NC3(CCCCC3)NC(c3cc(Br)ccc3O)C2)cc1 (configuration not stated)
-0.61,COc1ccc(S(=O)(=O)NCCSCc2ccco2)cc1
-0.94,Cc1onc(-c2ccccc2)c1C(=O)Nc1cccc2c1C(=O)c1ccccc1C2=O
0.35,Cc1sc2ncn(CC(=O)Nc3ccc(Oc4ccccc4)cc3)c(=O)c2c1S(=O)(=O)N1CCN(C)CC1
8.4,CCNc1c2c3c(cccc3n(C)c1=O)C(=O)c1ccccc1-2
0.99,CCn1c2ccccc2c2cc(NC(=O)c3cc4c(=O)oc5ccccc5c4s3)ccc21
0.92,CCN(CC)S(=O)(=O)c1ccc(F)c(C(=O)NCCC(C)C)c1
0.69,COc1ccc([N+](=O)[O-])cc1CSc1nc2ccc(N3C(=O)c4ccc([N+](=O)[O-])cc4C3=O)cc2s1
0.6,CCOc1cc(C2Nc3ccccc3NC3=C2C(=O)CC(c2ccccc2)C3)cc(Cl)c1O (configuration not stated)
0,CCCc1nnc(NC(=O)c2c(O)c3cccc4c3n(c2=O)CCC4)s1
0.09,CCCC1=NN(C(=O)c2ccncc2)C(O)(C(F)(F)F)C1 (configuration not stated)
0.91,Cc1nc(N2CCOCC2)c2c(C)c(C(=O)Nc3cc(Sc4ccc(F)cc4)cc([N+](=O)[O-])c3)sc2n1
0.43,Cc1ccc(C2/C(=C(\O)c3ccc(Br)cc3)C(=O)C(=O)N2c2nccs2)cc1 (configuration not stated)
-0.19,Cc1oc(-c2ccsc2)[n+]([O-])c1C
-0.76,O=C(Nc1ccc(C(=O)OC2CCCCC2)cc1)c1cccc(Cl)c1
1.4,COc1ccc(C(=O)Nc2sc3c(c2C#N)CCC(C)C3)cc1OC (configuration not stated)
-0.46,Nc1cc(S(=O)(=O)c2ccc(Br)c(N)c2)ccc1Br
0.73,Cc1cc(C)nc(SCC(=O)c2c[nH]c3ccccc23)n1
-0.48,CCCOc1ccc(C(=O)Nc2ccc(S(=O)(=O)Nc3ncccn3)cc2)cc1
-0.89,COc1ccc(-c2cc(C(F)(F)F)n3nc(C(=O)N4CCN(C56CC7CC(CC(C7)C5)C6)CC4)cc3n2)cc1OC
0.94,CCOCCCNC(=O)c1nn(-c2ccc(C)cc2)c(=O)c2c1c1ccccc1n2C
-0.34,O=C(CC1(O)C(=O)Nc2ccc(Cl)cc21)c1ccccc1O (configuration not stated)
-0.85,CCc1ccc2oc(-c3cc(N=Cc4cccc([N+](=O)[O-])c4)ccc3O)nc2c1
-0.44,COc1cccc(NC(=O)Cn2cc(C(=O)C(F)(F)F)c3ccccc32)c1
-0.24,COc1ccc(C2CC(=O)C3=C(C2)Nc2ccccc2NC3c2ccc(C)cc2)cc1 (configuration not stated)
1.3,O=C(Nc1nc(-c2ccc(Br)s2)cs1)c1ccc(S(=O)(=O)N2CCOCC2)cc1
-1.2,CCOC(=O)c1c(C)oc2c1c(C(c1ccncc1)N1CCOCC1)c(O)c1ccccc12 (configuration not stated)
-0.32,CC(=O)Nc1ccc2nc(SCC(=O)Nc3c(C)cc(C)cc3C)sc2c1
0.32,CCN(CC)S(=O)(=O)c1ccc2[nH]cc(C(=O)NCCc3ccccc3)c(=O)c2c1
-0.38,CC(=O)c1ccc(SCC(=O)Nc2ccc3ccccc3c2)c([N+](=O)[O-])c1
1.4,COc1ccccc1N=c1oc2ccc(Cl)cc2cc1C(=O)Nc1nccs1
0.13,O=C1OC(Nc2ccc([N+](=O)[O-])cc2O)c2ccccc21 (configuration not stated)
1.4,CCOC(=O)C1CCCN(CCC(=O)Nc2ccc3c(c2)OCO3)C1 (configuration not stated)
-2.6,NS(=O)(=O)c1ccc(CCNC(=O)c2cccc([N+](=O)[O-])c2)cc1
-1.3,CCCc1ccc(OCCNC(=O)c2ccc3ccccc3n2)cc1
-0.42,O=C(NC1CCCc2ccccc21)C1CCN(S(=O)(=O)N2CCOCC2)CC1 (configuration not stated)
-0.16,COc1ccc(Cl)cc1C(=O)Nc1ccc(S(=O)(=O)NC(C)=O)cc1
-0.38,COc1ccc(C=NC2=NN(c3cccc(C(F)(F)F)c3)CC2)cc1
0.12,COc1ccc(CCNC(=O)c2ccc3c(c2)nc(C)n3-c2ccc(C(C)C)cc2)cc1OC
-0.09,CCOC(=O)c1cnc2c(C)cc(C)cc2c1Nc1ccc(C)cc1
-0.45,COC(=O)c1cc(NC(=O)C2(S(=O)(=O)c3ccc(Cl)cc3)CC2)cc(C(=O)OC)c1
-0.09,COCCNC(=O)c1c[nH]c2ccc(S(=O)(=O)N(C)c3ccc(Cl)cc3)cc2c1=O
1.6,CNC(=O)CN1C(=O)CSc2ccccc21
-1.1,O=C(O)c1ccccc1C(=O)Nc1ccccc1O
2.7,COc1cccc(C2/C(=C(\O)c3ccccc3)C(=O)C(=O)N2c2nc3ccccc3s2)c1 (configuration not stated)
-0.55,COc1ccc(C2C(C(=O)Nc3ccc(OC)c(OC)c3)CCC(=O)N2c2ccc(OC)cc2)cc1 (configuration not stated)
0.05,CC(=O)N1CCc2cc(S(=O)(=O)NC(C(=O)Nc3ccc4c(c3)OCO4)C(C)C)ccc21 (configuration not stated)

Continued, overlapping the part above by 6 compounds.
Measles inh,smiles
-0.09,COCCNC(=O)c1c[nH]c2ccc(S(=O)(=O)N(C)c3ccc(Cl)cc3)cc2c1=O
1.6,CNC(=O)CN1C(=O)CSc2ccccc21
-1.1,O=C(O)c1ccccc1C(=O)Nc1ccccc1O
2.7,COc1cccc(C2/C(=C(\O)c3ccccc3)C(=O)C(=O)N2c2nc3ccccc3s2)c1 (configuration not stated)
-0.55,COc1ccc(C2C(C(=O)Nc3ccc(OC)c(OC)c3)CCC(=O)N2c2ccc(OC)cc2)cc1 (configuration not stated)
0.05,CC(=O)N1CCc2cc(S(=O)(=O)NC(C(=O)Nc3ccc4c(c3)OCO4)C(C)C)ccc21 (configuration not stated)
-0.11,CCCn1c(=NC(=O)c2cc(OC)cc(OC)c2)c(C(=O)OCC)cc2c(=O)n3ccccc3nc21
-0.84,O=C(c1ccco1)N1CCN(S(=O)(=O)c2ccc3c(c2)CCN3C(=O)C2CC2)CC1
-1.8,O=P(Cc1cccc(CP(=O)(c2ccccc2)c2ccccc2)n1)(c1ccccc1)c1ccccc1
-0.24,O=C(NC(C(=O)N1CCOCC1)C12CC3CC(CC(C3)C1)C2)c1ccc([N+](=O)[O-])cc1 (configuration not stated)
0.05,CC(Nc1cc(N2CCNCC2)ccc1[N+](=O)[O-])C12CC3CC(CC(C3)C1)C2 (configuration not stated)
0.32,Cc1onc(-c2ccccc2Cl)c1C(=O)Nc1ccc(Br)cc1
0.31,CCc1ccc(NC(=O)C2CCC(=O)N(c3ccc(OC)cc3)C2c2ccc(OC)c(OC)c2)cc1 (configuration not stated)
-0.83,CCCc1cc(-n2ccnc2C)n2c(nc3ccccc32)c1C#N
-0.3,O=C(c1ccc([N+](=O)[O-])s1)N1CCc2ccccc2C1
-0.24,CC(C)C1N=C2c3ccccc3N=C(SCC(=O)c3ccc(F)cc3)N2C1=O (configuration not stated)
-1,CC1=C(C(=O)Nc2ccccc2C)C(c2ccc(C)o2)NC(=S)N1 (configuration not stated)
0.67,COC(=O)CSc1nc(-c2ccccc2)cc(-c2cccc(F)c2)c1C#N
-1.3,COc1ccc(C2N(c3ccccc3)CCN2c2ccccc2)cc1[N+](=O)[O-]
2,O=[N+]([O-])c1ccc(CSc2nnc(-c3ccncc3)n2Cc2ccccc2)cc1
0.17,Cc1cc(C)n(CCC(=O)O)n1
1.7,CC1(C)CC(=O)C2=C(C1)Nc1nc(SCc3ccc([N+](=O)[O-])cc3)[nH]c(=O)c1C2c1ccncc1 (configuration not stated)
0.08,CCCOc1ccc(CSC2=NCCN2)cc1[N+](=O)[O-]
0.05,CCOc1cc2c(cc1OCC)C1C(C(=O)NC3CCCCC3)c3ccccc3C(=O)N1CC2 (configuration not stated)
0.36,CC(=O)Nc1ccc(S(=O)(=O)NCc2ccc(C(=O)N3CCOCC3)cc2)cc1
-1.5,Cc1nn(C(C)(C)C)c(OC(=O)COc2ccccc2)c1S(=O)(=O)c1ccccc1
-0.23,COc1ccc(S(=O)(=O)NCc2ccc(F)cc2)cc1OC
-0.71,Cc1nnc(SCC(=O)Nc2ccccc2[N+](=O)[O-])[nH]c1=O
0.16,O=C(CC1SC(=Nc2ccccc2)N(c2ccccc2)C1=O)Nc1cccc(C(=O)O)c1 (configuration not stated)
-0.65,CCN(CC)CCN1C(=O)C(=O)c2cc(C)ccc21
0.89,O=C(O)CSc1n[nH]c(-c2ccco2)n1
1.9,O=C(CNS(=O)(=O)c1cccs1)N1CCN(c2ccccc2)CC1
0.95,CCC(C)NC(=O)c1cc2c(=O)n3ccccc3nc2s1 (configuration not stated)
-1.1,CCCOc1ccc(-c2nn(-c3ccccc3)cc2C2NC(=O)NC(C)=C2C(=O)OC(C)C)cc1C (configuration not stated)
-0.53,COc1ccccc1C(=O)Nc1ccc(NC(=O)c2ccco2)c(Cl)c1
-0.95,CC1(C)CC2CC(C)(CN2S(=O)(=O)c2cccc([N+](=O)[O-])c2)C1 (configuration not stated)
0.34,Cc1ccc2nc(Nc3nc(CSc4ccc(Cl)cc4)cc(=O)[nH]3)nc(C)c2c1
0.77,CCC(=O)N1CCc2cc(Br)cc(S(=O)(=O)NCCc3cccc(C)c3)c21
0.47,Cc1cc(C)c(N=c2scc(C)n2Cc2ccccc2)c(C)c1
-0.37,O=C(O)C1C2C=CC(C2)C1C(=O)N1CCN(CC=Cc2ccccc2)CC1 (configuration not stated)
0.08,CC1CCCC(NC(=O)c2ccc(CNC(=O)c3cccc(Br)c3)cc2)C1C (configuration not stated)
5.2,Cc1cc(C)cc(NC2=C(Cl)C(=O)N(c3cccc(C(F)(F)F)c3)C2=O)c1
-2.3,Cc1cc(C)c(C(=O)CC2(O)C(=O)Nc3ccccc32)cc1C (configuration not stated)
-0.29,CC(NC(=O)CSc1nnc(COc2ccccc2Cl)o1)c1ccccc1 (configuration not stated)
-0.68,CC(C)C(=O)N1C2=C(C(=O)c3ccccc32)C(c2ccc([N+](=O)[O-])cc2)c2c1n(C)c(=O)n(C)c2=O (configuration not stated)
0.51,COc1ccc2oc(=O)c(-c3csc(C)n3)cc2c1

Next part, starting with the last two of the part before.
Measles inh,smiles
-0.68,CC(C)C(=O)N1C2=C(C(=O)c3ccccc32)C(c2ccc([N+](=O)[O-])cc2)c2c1n(C)c(=O)n(C)c2=O (configuration not stated)
0.51,COc1ccc2oc(=O)c(-c3csc(C)n3)cc2c1
0.27,O=S(=O)(Nc1ccc2oc3c(c2c1)CCCC3)c1cccs1
-1,CC(=O)C1=C(O)C(=O)N(Cc2cccnc2)C1c1ccc(O)cc1 (configuration not stated)
1.8,O=C(Nc1ccc(Br)c2cccnc12)c1ccc(Cn2cc([N+](=O)[O-])cn2)o1
-0.02,c1ccc(-c2cnc(-c3ccc(-c4ncc(-c5ccccc5)o4)cc3)o2)cc1
-0.21,O=C(Nc1nnc(-c2ccc(Br)cc2)s1)c1ccc(Cl)cc1
-0.37,O=C1C2C3C=CC(CC3)C2C(=O)N1c1ccccc1F (configuration not stated)
-0.8,O=C(C1=C(O)C(=O)N(CCN2CCOCC2)C1c1cccnc1)c1ccco1 (configuration not stated)
0.59,CCOC(=O)C1CCC(CN(Cc2ccccc2C)S(=O)(=O)c2ccc(F)cc2)CC1 (configuration not stated)
-0.36,O=c1c2sccc2nc(SCc2cc(=O)n3cc(Cl)ccc3n2)n1-c1ccc(Br)cc1
2.4,O=C(Nc1ccccc1C1CC1)c1ccccc1Cl
-1.1,O=C(CSc1nc2ccc(N3CCCCC3)cc2c(=O)n1Cc1ccccc1)c1ccc(O)c(O)c1
0.9,COc1cc(NC(=O)Cn2nc(C(F)(F)F)c(Cl)c2C)cc(OC)c1OC
0.66,O=C(NCc1ccco1)c1cc(-c2ccccc2)nc2ccccc12

Ordered by count of non-hydrogen atoms (descending): some entries from above.
Measles inh,smiles
-0.36,O=c1c2sccc2nc(SCc2cc(=O)n3cc(Cl)ccc3n2)n1-c1ccc(Br)cc1
-0.8,O=C(C1=C(O)C(=O)N(CCN2CCOCC2)C1c1cccnc1)c1ccco1 (configuration not stated)
0.27,O=S(=O)(Nc1ccc2oc3c(c2c1)CCCC3)c1cccs1

Bioassay records from PubChem BioAssay.

The list is partial; rates above refer to the full screens.
